A1 inhib = blocks A1 activity. MEF A1-2A-BIM cells, caspase-Glo luminescence, 3 h; percent of clofoctol signal, DMSO as zero. caspase activation, % (no concentration beside the values). 0.51% of 21,000 active. AID 2241;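 active = most replicate scores above 10, or exactly half above 10 with mean activity above 10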;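 note: effector caspase 3 and 7 activity cleaving a DEVD luciferin substrate; 50 nL library stock added to about 30 µL; numbers are from one replicate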
BJeLR viab HTS = BJeLR cell viability reduction. 0.64% of 30,000 active. BJeLR fibroblasts viability, CellTiterGlo ATP luminescence, 48 h; HRASV12, hTERT and SV40 LT/ST transformed. viability loss activity score, % (concentration not given with the values). AID 2275; in the data active = viability loss activity score above about 50%; about a fifth of its hits are not listed in these tables;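 note: higher score means fewer live cells and less ATP luminescence; stock transfer was 50 or 100 nL into about 30 µL; 0% = vehicle wells and 100% = a reference killing control; one replicate is shown; the record names a cut of 85%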
The depositor's hits bear a star; . = no result given. These rows are one share of the data; count on the stated rates, not on these rows.

Every second line gives: A1 inhib	BJeLR viab HTS
1) Cc1cc(C)cc(NC(=O)CN2C(=O)CCc3ccccc32)c1
 : 10.9*	0.3
2) O=C1C2ON(c3ccc(Cl)cc3)C(c3ccc(F)cc3)C2C(=O)N1Cc1ccccc1 (stereo unspecified)
 : 0.0	-1.2
3) C[n+]1cc(C(=O)NCCC[N+]2(C)CCCC2)ccc1/C=N/O
 : 0.1	3.4
4) COC(=O)c1ccc(COc2ccc3ccccc3c2)o1
 : .	1.5
5) C=CCSc1nc2c(c(-c3ccc(C)o3)c1C#N)CCCC2
 : -0.2	-1.5
6) CCOC(=O)c1cn(CC)c2ccc(S(=O)(=O)N3CCc4ccccc4C3)cc2c1=O
 : -0.9	10.6
7) CCOC(=O)c1cnn(-c2ccccc2)c1N(C(=O)c1ccccc1F)C(=O)c1ccccc1F
 : 0.5	4.3
8) CC(C)NC(=O)Nc1ccc2c(c1)C(=O)N([C@@H](C)CO)C[C@@H](C)[C@@H](CN(C)Cc1ccc(C(F)(F)F)cc1)O2
 : -0.7	-3.1
9) C[C@H]1CN([C@@H](C)CO)C(=O)c2cccc(NC(=O)C3CCCCC3)c2O[C@H]1CN(C)C(=O)Nc1ccc(C(F)(F)F)cc1
 : .	4.0
10) C[C@@H]1CN([C@H](C)CO)C(=O)c2cccc(NC(=O)c3cnccn3)c2O[C@H]1CN(C)C(=O)Nc1ccccc1
 : .	-4.5
11) C=C1SC(Nc2c(CC)cccc2CC)=NC1(C)C
 : -0.3	-17.4
12) C[C@@H]1CN([C@H](C)CO)C(=O)c2cc(N(C)C)ccc2O[C@H]1CN(C)C(=O)Nc1ccc(F)cc1
 : 1.0	-2.0
13) C=C1C(=O)O[C@H]2[C@H]1[C@@H](OC(=O)/C(C)=C\C)C[C@]1(C)O[C@@H]1[C@H]1O[C@H]1C(=C)[C@H]2O
 : 0.1	36.2
14) C=CCN1C(C(=O)c2ccccc2)=C(OC(=O)c2ccccc2)c2ccccc2S1(=O)=O
 : -0.6	6.6
15) Cc1ccc(S(C)(=O)=NC(=O)NC(=O)c2c(Cl)cccc2Cl)cc1 (stereo unspecified)
 : 0.0	-0.5
16) Cc1cc(-c2ccccc2)nc(SCc2ccccc2)c1C#N
 : 1.8	43.6
17) C[C@@H]1CN([C@H](C)CO)C(=O)c2cccc(NC(=O)Nc3ccccc3)c2O[C@H]1CN(C)Cc1ccc2c(c1)OCO2
 : .	2.3
18) Cc1ccc(S(=O)(=O)Nc2cccc3c2O[C@H](CN(C)C(=O)NC2CCCCC2)[C@@H](C)CN([C@H](C)CO)C3=O)cc1
 : .	-3.0
19) CN1C(=O)C(C(=O)NC(C)(C)C)C2CC1(C)Oc1ccccc12 (stereo unspecified)
 : -0.1	1.1
20) CCC(Sc1nncn1C)C(=O)Nc1ccc(OC(F)(F)F)cc1 (stereo unspecified)
 : -0.3	-3.2
21) Cc1nn(C(C)(C)C)c(NC(=O)c2ccccc2)c1C#N
 : 0.0	1.1
22) C[C@H]1CN([C@@H](C)CO)C(=O)c2cc(NS(=O)(=O)c3cccs3)ccc2O[C@@H]1CN(C)C(=O)Nc1ccccc1
 : -1.0	-1.3
23) COc1ccc(Br)cc1C1CC(=O)C(C)C(c2cc(Br)ccc2OC)N1 (stereo unspecified)
 : .	-1.0
24) CCC1CCCCN1C(=O)c1ccc(F)cc1 (stereo unspecified)
 : 0.3	5.1
25) O=C(CSc1nc2c(c(=O)n1-c1ccc(Cl)cc1)SCC2)Nc1nccs1
 : .	-2.4
26) C[C@@H]1CN([C@H](C)CO)C(=O)c2cc(NS(=O)(=O)c3cn(C)cn3)ccc2O[C@H]1CN(C)Cc1ccc(Cl)c(Cl)c1
 : -1.1	-3.1
27) CN1CCN(C(=S)c2cn(Cc3ccc(F)cc3)c3ccccc23)CC1
 : 0.0	-1.1
28) COc1ccccc1OCC(=O)NCCC1=CCCCC1
 : 0.6	2.0
29) O=C(CC(=O)c1ccccc1O)c1ccccc1
 : -2.6	5.7
30) C[C@H](CO)N1C[C@H](C)[C@@H](CN(C)S(=O)(=O)c2cn(C)cn2)Oc2c(NS(=O)(=O)c3ccc(Cl)cc3)cccc2C1=O
 : .	-1.9

Single records (already shown).
`CC(C)NC(=O)Nc1ccc2c(c1)C(=O)N([C@@H](C)CO)C[C@@H](C)[C@@H](CN(C)Cc1ccc(C(F)(F)F)cc1)O2` across the screens: A1 inhib = -0.7; BJeLR viab HTS = -3.1
`COc1ccccc1OCC(=O)NCCC1=CCCCC1` across the screens: A1 inhib = 0.6; BJeLR viab HTS = 2.0

(next part)
Every second line gives: A1 inhib	BJeLR viab HTS
31) Cc1ccc(S(=O)(=O)N(C)C[C@H]2Oc3ccc(NC(=O)CCC(F)(F)F)cc3C(=O)N([C@@H](C)CO)C[C@@H]2C)cc1
 : 0.0	-10.3
32) COc1ccc(S(=O)(=O)Nc2ccc3c(c2)C(=O)N([C@@H](C)CO)C[C@H](C)[C@H](CN(C)C)O3)cc1
 : -0.8	2.3
33) COc1ccc(S(=O)(=O)Nc2ccc3c(c2)C(=O)N([C@H](C)CO)C[C@H](C)[C@H](CN(C)S(=O)(=O)c2cccs2)O3)cc1
 : 0.0	2.6
34) CC1(C)N=C(c2ccccc2)C(=S)N1
 : .	-6.0
35) Cc1ccc(C(=O)CC(C(=O)c2ccc(C(F)(F)F)cc2)c2cccs2)cc1 (stereo unspecified)
 : .	-5.5
36) C[C@@H]1CN([C@@H](C)CO)C(=O)c2cc(NC(=O)c3ccncc3)ccc2O[C@@H]1CN(C)C(=O)Nc1ccc2c(c1)OCO2
 : -0.1	-1.0
37) COc1ccccc1NC(=O)c1cccc(S(=O)(=O)N2CCCC2)c1
 : -0.1	-3.2
38) C[C@@H]1CN([C@@H](C)CO)C(=O)c2cccc(NS(=O)(=O)c3cn(C)cn3)c2O[C@H]1CN(C)C(=O)NC1CCCCC1
 : .	2.8
39) Nc1ncc(Br)cc1S(=O)(=O)NCCC(=O)Nc1ccc(Cl)cc1
 : 0.9	-4.3
40) Cc1c(C)c(C)c(C(=O)/C=N/N)c(C)c1C
 : -0.4	-7.9
41) O=C(Nc1ccc(OCc2ccccc2)cc1)OCC1CN(Cc2ccccc2)CCO1 (stereo unspecified)
 : 0.2	24.2
42) C[C@H](CO)N1C[C@H](C)[C@H](CN(C)Cc2ccc(Cl)c(Cl)c2)Oc2ccc(NS(=O)(=O)c3ccc(Cl)cc3)cc2C1=O
 : 0.6	2.0
43) Cc1ccccc1NC(=O)Nc1ccccc1N1CCCCC1
 : 0.0	1.4
44) Cc1ccc(S(=O)(=O)N(C)C[C@H]2Oc3ccc(NC(=O)Cc4ccccc4)cc3C(=O)N([C@@H](C)CO)C[C@@H]2C)cc1
 : -0.6	-3.3
45) N=C1S/C(=C\c2ccccc2)C(=O)N1c1ccc(F)cc1
 : 0.0	-0.7
46) Cc1ccc(-c2ccc(=O)n(CCC(=O)NCCN3CCN(c4cccc(Cl)c4)CC3)n2)cc1
 : 0.0	-0.3
47) C[C@H](CO)N1C[C@H](C)[C@@H](CN(C)Cc2ccc(C(=O)O)cc2)Oc2ccc(NC(=O)Nc3ccc4c(c3)OCO4)cc2C1=O
 : 0.2	-0.7
48) C[C@@H]1CN([C@@H](C)CO)C(=O)c2cc(NS(=O)(=O)c3ccc(F)cc3)ccc2O[C@H]1CN(C)C(=O)NC1CCCCC1
 : 0.3	-2.0
49) C[C@H]1CN([C@@H](C)CO)C(=O)c2cc(NC(=O)C3CCCCC3)ccc2O[C@H]1CN(C)Cc1ccc(C(F)(F)F)cc1
 : -0.1	-1.8
50) COc1ccc(S(=O)(=O)Nc2cccc3c2O[C@H](CN(C)C(=O)Nc2ccc(F)cc2)[C@H](C)CN([C@H](C)CO)C3=O)cc1
 : .	-2.9
51) CC1=C(C(=O)OC2CCCCCCC2)C(c2ccccc2C(F)(F)F)CC(=O)N1 (stereo unspecified)
 : .	4.2
52) CCN1C(=O)/C(=C/C=C2\CCCN2C)N(c2ccccc2)C1=S
 : 0.9	0.8
53) C[C@H]1CN([C@@H](C)CO)C(=O)c2cc(NC(=O)Nc3ccc(F)cc3)ccc2O[C@@H]1CN(C)Cc1ccc(Oc2ccccc2)cc1
 : -0.4	1.3
54) CN(C)c1ccc(N/C(N)=N/c2nc(C(F)(F)F)cc(C(F)(F)F)n2)cc1
 : 1.1	4.7
55) NNC(=O)C12CCCC(CCC1)C2
 : -0.1	-1.4
56) CC(C)NC(=O)N(C)C[C@H]1Oc2c(NC(=O)c3ccncc3)cccc2C(=O)N([C@@H](C)CO)C[C@@H]1C
 : .	3.2
57) COc1ccc(CNC(=O)c2cc3c(s2)CN(Cc2ccccc2)C3)cc1
 : 1.5	5.8
58) CCc1nnc(NC(=O)C(C)N2C(=O)C3C4C=CC(C4)C3C2=O)s1 (stereo unspecified)
 : 0.1	1.1
59) Brc1ccc2noc(-c3ccccc3)c2c1
 : -2.3	-0.8
60) C[C@@H]1CN([C@H](C)CO)C(=O)c2cc(NC(=O)NC3CCCCC3)ccc2O[C@H]1CN(C)C
 : 0.0	-2.5
61) C[C@@H]1CN([C@@H](C)CO)C(=O)c2cccc(NC(=O)Nc3ccc4c(c3)OCO4)c2O[C@H]1CN(C)C(=O)Nc1ccccc1
 : .	-2.0
62) CC(C)CSCC1OC(n2cnc3c(N)ncnc32)C(O)C1O (stereo unspecified)
 : 0.0	-2.3
63) Cc1ccc(-c2nc(-c3ccc(Cl)cc3)cs2)cc1F
 : -0.2	1.4
64) O=C(CNc1cc(C(F)(F)F)cc(C(F)(F)F)c1)c1cc2cc(Cl)ccc2o1
 : .	4.2
65) C[C@@H]1CN([C@H](C)CO)C(=O)c2cc(NC(=O)Nc3cccc4ccccc34)ccc2O[C@@H]1CN(C)C(=O)Nc1ccc2c(c1)OCO2
 : -0.7	0.5
66) Cc1ccc(S(=O)(=O)Nc2cccc3c2O[C@@H](CN(C)C(=O)NC2CCCCC2)[C@H](C)CN([C@H](C)CO)C3=O)cc1
 : .	2.1
67) CCOC(=O)C(C)Oc1ccc2c(-c3ccccc3)cc(=O)oc2c1 (stereo unspecified)
 : -1.0	-11.3
68) C[C@H]1CN([C@@H](C)CO)C(=O)c2cccc(NC(=O)Nc3cccc4ccccc34)c2O[C@H]1CN(C)CC1CCCCC1
 : .	7.6
69) C[C@H](CO)N1C[C@H](C)[C@@H](CN(C)S(=O)(=O)c2ccc(Cl)cc2)Oc2c(NS(=O)(=O)c3cn(C)cn3)cccc2C1=O
 : .	-1.6
70) C[C@@H]1CN([C@@H](C)CO)C(=O)c2cccc(NS(=O)(=O)c3cn(C)cn3)c2O[C@@H]1CN(C)Cc1ccc(Oc2ccccc2)cc1
 : .	-1.9
71) COc1ccccc1Cn1c(=S)[nH]c2cc(C(=O)N3CCC4(CC3)OCCO4)ccc2c1=O
 : -1.0	-3.9
72) Cc1noc(C)c1S(=O)(=O)Nc1cccc2c1O[C@H](CN(C)Cc1ccc(-c3ccccc3)cc1)[C@H](C)CN([C@@H](C)CO)C2=O
 : .	1.9
73) COc1nsnc1N1CCOCC1
 : 0.6	-0.7
74) COc1ccc(S(=O)(=O)Nc2ccc3c(c2)C(=O)N([C@H](C)CO)C[C@@H](C)[C@H](CN(C)C)O3)cc1
 : 0.1	1.1
75) C[C@H]1CN([C@@H](C)CO)C(=O)c2cc(NC(=O)Cc3ccccc3)ccc2O[C@@H]1CN(C)S(=O)(=O)c1ccc(F)cc1
 : 0.4	2.4
76) N#C/C(=C\Nc1cnccn1)S(=O)(=O)c1ccc(C(F)(F)F)cn1
 : 0.0	0.5
77) CCOC(=O)C1CCCN(C(=O)c2cc(Nc3ccc(OC)cc3)nc3ccccc23)C1 (stereo unspecified)
 : .	0.6
78) C[C@@H]1CN([C@@H](C)CO)C(=O)c2cccc(NS(C)(=O)=O)c2O[C@@H]1CN(C)C(=O)Nc1ccc(F)cc1
 : .	-5.1
79) N#CCCN(Cc1ccccc1)S(=O)(=O)c1ccccc1
 : -0.8	-3.0
80) COc1cc(C(=O)C(C#N)c2nc3ccccc3s2)cc(OC)c1OC (stereo unspecified)
 : -0.2	0.1
81) COc1ccc(S(=O)(=O)N(C)C[C@H]2Oc3c(NS(=O)(=O)c4ccc(F)cc4)cccc3C(=O)N([C@@H](C)CO)C[C@H]2C)cc1
 : .	-4.3
82) COc1ccc(S(=O)(=O)Nc2ccc3c(c2)C(=O)N([C@@H](C)CO)C[C@H](C)[C@@H](CN(C)Cc2ccncc2)O3)cc1
 : -1.0	5.3
83) Cc1cccc(Cn2c(=O)n(Cc3ccccc3)c(=O)c3c(C)c(C)sc32)c1
 : .	-1.1
84) COc1ccccc1C1CCN(C(=O)CSCc2cccc3ccccc23)CC1
 : -0.6	1.9
85) CCOC(=O)c1c(NC(C)=O)sc2c1CCCCC2
 : 0.7	-0.7
86) CCOC(=O)Cc1csc(-c2ccc(Oc3ccc(C(F)(F)F)cn3)cc2)n1
 : 0.1	2.2
87) CCOC(=O)c1sc(C)c2c(=O)n(Cc3ccccc3)c(C)nc12
 : 0.1	-1.7
88) C[C@@H]1CN([C@@H](C)CO)C(=O)c2cc(NC(=O)CCC(F)(F)F)ccc2O[C@H]1CN(C)S(=O)(=O)c1ccc(Cl)cc1
 : 0.4	-1.6
89) O=C(c1ccc(Cl)c(Cl)c1)N1CCc2ccccc21
 : -2.1	-0.1
90) C[C@@H]1CN([C@@H](C)CO)C(=O)c2cc(N(C)C)ccc2O[C@@H]1CN(C)C
 : -0.2	-3.8
91) Cc1noc(C)c1S(=O)(=O)Nc1cccc2c1O[C@H](CN(C)Cc1ccc(Cl)c(Cl)c1)[C@H](C)CN([C@H](C)CO)C2=O
 : .	-1.9

4 records picked at random from the list so far, as already listed:
Every second line gives: A1 inhib	BJeLR viab HTS
83) Cc1cccc(Cn2c(=O)n(Cc3ccccc3)c(=O)c3c(C)c(C)sc32)c1
 : .	-1.1
80) COc1cc(C(=O)C(C#N)c2nc3ccccc3s2)cc(OC)c1OC (stereo unspecified)
 : -0.2	0.1
87) CCOC(=O)c1sc(C)c2c(=O)n(Cc3ccccc3)c(C)nc12
 : 0.1	-1.7
89) O=C(c1ccc(Cl)c(Cl)c1)N1CCc2ccccc21
 : -2.1	-0.1
